# Insulin prom inh = TRM-6 insulin promoter activity inhibition; TRM-6 cells (human fetal islet line), insulin promoter-eGFP reporter, imaging; reporter expression induced with tamoxifen; inhibition, % at 2 µM; 0.9% of 130,000 active;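 active = inhibition above the mean plus 3 SD, with well images judged a real hit on visual review, cut at about 60% in these data, passing the limit was not always enough; inconclusive = inhibition over the cutoff but images rejected on review; inactive = inhibition not above the cutoff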
# HSV replic up = HSV replication enhancement; maximum fold increase; AID 1956; HSV replication augmentation in cells, fold increase; 0.005% of 220,000 active;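 active = peak rise of 1.5-fold or more in the series; inconclusive = self-fluorescent or not available for retest; tested in PC3 cells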;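 note: first round at 10 µM; read as green reporter fluorescence; hits show the peak of a series up to 25 µM; 1 = signal of infected wells without compound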
# RGS16-Gao = RGS16-Galphao interaction regulator (human) | O15492+P09471 | bead-based flow cytometry RGS16-Galphao binding, fluorescence; actives lie on both sides | binding response (% of control), % at 10 µM | 0.38% of 220,000 active;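 active = below 25% or above 175%, edge rows of some plates excepted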;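 note: Galphao activated by GDP with aluminum fluoride before binding; 100% = wells without compound and 0% = beads without RGS; some results beyond the cut were filed as inactive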
# Target sequence (O15492 whole entry, looked up): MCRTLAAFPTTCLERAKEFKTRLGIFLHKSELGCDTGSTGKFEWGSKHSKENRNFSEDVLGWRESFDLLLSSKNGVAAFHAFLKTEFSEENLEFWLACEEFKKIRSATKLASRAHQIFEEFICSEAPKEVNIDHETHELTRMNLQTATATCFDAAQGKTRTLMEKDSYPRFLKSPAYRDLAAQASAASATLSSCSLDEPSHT
# Target sequence (P09471 whole entry, looked up): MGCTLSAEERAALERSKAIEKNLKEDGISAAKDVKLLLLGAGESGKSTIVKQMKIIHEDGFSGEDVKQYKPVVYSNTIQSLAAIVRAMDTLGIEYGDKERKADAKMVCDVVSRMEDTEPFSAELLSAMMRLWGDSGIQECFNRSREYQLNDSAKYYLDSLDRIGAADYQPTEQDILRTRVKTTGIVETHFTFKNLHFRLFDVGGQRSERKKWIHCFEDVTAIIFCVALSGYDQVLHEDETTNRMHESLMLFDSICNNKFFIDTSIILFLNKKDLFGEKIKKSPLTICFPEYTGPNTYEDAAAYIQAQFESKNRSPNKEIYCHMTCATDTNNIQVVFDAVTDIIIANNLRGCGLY
# PKD1 inh = blocks activity of human protein kinase D1. PKD1 kinase fluorescence polarization assay. AID 797. inhibition, %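 (about 10 µM by stock and volumes)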. 0.056% of 200,000 active. Q15139;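 active = inhibition of 50% or more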;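 note: controls were vehicle for no effect and a reference inhibitor for full effect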
# GALR2 agonist = activates the human galanin receptor 2; 0.48% of 140,000 active; GALR2-expressing cells, agonist activation read-out; O43603; AID 803; activation, %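 (tested at 5 µM)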;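 active = above mean plus 3 SD of all compounds, about 5% in these data, not always enough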;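 note: 0% = vehicle buffer wells and 100% = reference agonist at full effect; tested in CHO reporter cells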
# Target sequence (O43603 whole entry, looked up): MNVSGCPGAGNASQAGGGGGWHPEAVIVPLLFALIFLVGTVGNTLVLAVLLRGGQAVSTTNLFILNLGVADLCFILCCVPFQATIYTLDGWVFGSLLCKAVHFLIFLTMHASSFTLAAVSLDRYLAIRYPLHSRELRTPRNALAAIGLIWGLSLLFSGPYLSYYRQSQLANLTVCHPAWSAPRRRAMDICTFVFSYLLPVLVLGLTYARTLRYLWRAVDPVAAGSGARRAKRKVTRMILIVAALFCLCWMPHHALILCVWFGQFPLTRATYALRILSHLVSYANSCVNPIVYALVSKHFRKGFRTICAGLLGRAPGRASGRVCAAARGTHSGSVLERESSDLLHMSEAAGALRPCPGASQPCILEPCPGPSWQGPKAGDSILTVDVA
# Insulin prom inh cell count = recorded beside Insulin prom inh, whose call it bears; normalized cell count, %; measured here: cell count, toxicity; reference of the scale not given here;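 cells exposed to compound for 48 h; stained nuclei by imaging scaled within each plate; lower means fewer cells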
# HSV replic up primary fold = second read-out of HSV replic up, no call of its own (marks repeat the call); fold increase; compound at 10 µM; measured here: primary screen fold increase 10 uM; tested in PC3 cells;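 GFP signal in the first replicate; 1 = infected wells without compound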
# Starred values were filed as active, the others as inactive; i = inactive; ? = inconclusive; nt = not tested or not shown.
SMILES,Insulin prom inh,Insulin prom inh cell count,HSV replic up,HSV replic up primary fold,RGS16-Gao,PKD1 inh,GALR2 agonist
CCSc1nnc(NC(=O)C2CCN(S(=O)(=O)c3c(C)c(C)cc(C)c3C)CC2)s1,3,100,i,1,106,-7,-0.5
CCOC(=O)c1cc(CC)sc1NC(=O)COc1ccc2c(C)cc(=O)oc2c1,10,100,i,0.97,104,-1,-0.3
O=C(Nc1ccc2c(c1)OCO2)C1CCN(C(=O)c2ccc(Cl)cc2)CC1,nt,nt,i,0.94,105,-6,nt
Cc1ccc(S(=O)(=O)N(C)C)cc1-n1c(SCC(=O)N(C)C)nc2ccccc2c1=O,nt,nt,i,1,101,7,nt
O=C(Cn1ncc2c1-c1ccccc1OC2)N1CCc2ccccc21,nt,nt,i,0.92,99,-3,-1.4
O=C(ONC1=NCCCCC1)c1ccc([N+](=O)[O-])cc1,-3,119,i,0.86,98,-10,nt
NNC(=O)c1ccc(COCC(F)(F)F)cc1,nt,nt,i,1.2,101,nt,nt
O=C(c1ccco1)N(Cc1ccccc1)Cc1ccccn1,nt,nt,i,1.1,110,-8,nt
Cc1c(-c2ccc(/C=N/NC(=O)C(=O)Nc3ccccc3F)o2)cccc1[N+](=O)[O-],nt,nt,?,nt,104,nt,nt
CCn1c(C)nc2cc(C(=O)N3N=C(CCOC)CC3(O)C(F)(F)F)ccc21 (centres undefined),nt,nt,i,0.87,95,nt,nt
CCOC(=O)CC(=O)CSC1=C(C#N)C(c2ccccc2OC)CC(=O)N1 (centres undefined),nt,nt,i,0.91,106,0,-0.8
COc1ccc(OCCSc2n[nH]c(N)n2)cc1,34,119,i,0.91,101,-1,-1.7
NS(=O)(=O)c1cccnc1Nc1cccc(C(F)(F)F)c1,63,115,i,1.1,86,-4,-1.0
NC(=O)[C@H]1CC2(CC(c3cccc(NC(=O)COc4ccc(Cl)cc4)c3)=NO2)CN1C(=O)c1ccc(Cl)cc1 (some centres undefined),nt,nt,i,0.74,106,nt,nt
CC1CC(NC(=O)c2cnc3n(c2=O)CCS3)CC(C)(C)C1 (centres undefined),nt,nt,i,0.89,105,nt,nt
CC(NC(=O)Cc1ccc(F)cc1)c1ccc(F)cc1 (centres undefined),19,139,i,0.83,92,-5,-1.2
CCCS(=O)(=O)N1CCCC(C(=O)NCCN2CCCCC2C)C1 (centres undefined),nt,nt,i,1,102,8,-0.8
CCOC(=O)N1CCN(C(=O)c2nn(-c3ccc(C)cc3)c(=O)c3c2c2ccccc2n3C)CC1,-30,117,nt,nt,97,-10,-0.1
CCC(=O)Nc1nc(C)cc(SCC(=O)OC)n1,nt,nt,i,0.89,101,3,-1.6
CCCCC(=O)Nc1ccc(C(=O)NCc2ccncc2)cc1,0,115,i,0.92,133,-5,-0.5

# Complete entries, quoted from the list. Screens in order: Insulin prom inh | Insulin prom inh cell count | HSV replic up | HSV replic up primary fold | RGS16-Gao | PKD1 inh | GALR2 agonist
# Cc1ccc(S(=O)(=O)N(C)C)cc1-n1c(SCC(=O)N(C)C)nc2ccccc2c1=O as listed: nt | nt | i | 1 | 101 | 7 | nt
# O=C(ONC1=NCCCCC1)c1ccc([N+](=O)[O-])cc1 as listed: -3 | 119 | i | 0.86 | 98 | -10 | nt
# NNC(=O)c1ccc(COCC(F)(F)F)cc1 as listed: nt | nt | i | 1.2 | 101 | nt | nt
# CCOC(=O)CC(=O)CSC1=C(C#N)C(c2ccccc2OC)CC(=O)N1 (centres undefined) as listed: nt | nt | i | 0.91 | 106 | 0 | -0.8
# CCOC(=O)c1cc(CC)sc1NC(=O)COc1ccc2c(C)cc(=O)oc2c1 as listed: 10 | 100 | i | 0.97 | 104 | -1 | -0.3

# Following part:
SMILES,Insulin prom inh,Insulin prom inh cell count,HSV replic up,HSV replic up primary fold,RGS16-Gao,PKD1 inh,GALR2 agonist
C=CCc1ccccc1OCC(O)CN1CCN(CCN2C(=O)c3cccc4cccc(c34)C2=O)CC1 (centres undefined),-52,107,i,0.69,103,5,1.0
O=C(OCC(=O)C12CC3CC(CC(C3)C1)C2)c1cccnc1,17,32,i,0.91,109,-10,nt
Cc1ccc(Cn2ccc(NC(=O)c3noc4c3CCCCC4)n2)cc1,nt,nt,i,0.9,97,4,-0.6
COc1ccc(C(=O)Nc2ccc(N3CCN(C(=O)C(C)C)CC3)cc2)cc1[N+](=O)[O-],nt,nt,i,0.94,101,3,-0.8
COC(=O)c1c(C)oc2ccc(N(C(=O)c3ccncc3)S(=O)(=O)c3ccc(C)cc3)cc12,-9,42,i,0.66,113,2,-4.2
CCOC(=O)c1sc(NC(=O)c2cc(-c3ccccc3)nc3ccccc23)c(C#N)c1C,-14,68,i,0.99,61,-6,-1.3
FC(F)(F)c1cnc(Oc2cccc3ccccc23)c(Cl)c1,41,92,i,1,101,-5,-1.0
CCOc1ncccc1C(=O)OCC(=O)Nc1ccc(C)c(S(=O)(=O)N(C)C)c1,nt,nt,i,0.82,98,-1,nt
O=C(NC(=S)N1CCCCC1)C12CC3CC(CC(C3)C1)C2,0,106,i,0.77,102,-6,-0.8
CCN(C(=O)COC(=O)c1cccnc1Nc1cccc(C(F)(F)F)c1)C1CCS(=O)(=O)C1 (centres undefined),-9,136,i,1.1,102,-1,0.5
CC(C)Oc1ccc(C(=O)NCc2cccnc2)cc1,nt,nt,i,0.94,98,-8,-1.7
O=C(CN1CCCC1)Nc1ccc([N+](=O)[O-])cc1,nt,nt,i,0.94,98,-5,nt
COC(=O)c1ccc(-c2noc(CN3CCCCC3c3nccn3C)n2)cc1 (centres undefined),nt,nt,i,0.92,97,-1,nt
C=CCn1c(NC(=O)c2ccc(C)cc2)c(C#N)sc1=N,nt,nt,i,1,101,1,-1.4
Cn1c2c(c(=O)n(C)c1=O)C(CC(=O)Nc1ccc(F)cc1)C(=O)N2 (centres undefined),-36,120,i,0.89,100,-3,nt
CSc1nsc(SC)c1NC(=O)OCc1ccccc1,31,155,i,0.99,96,-7,-4.2
O=C1C(=C(c2ccccc2)c2ccccc2)Nc2ccccc21,7,116,i,1.1,105,1,-3.7
CC(C)OCCCNC(=O)C(NS(=O)(=O)c1ccc2c(c1)c(=O)n(C)c(=O)n2C)c1ccccc1 (centres undefined),nt,nt,i,0.94,96,-6,nt
O=C(NCc1ccc(Cl)cc1)c1ccc(Br)o1,5,101,i,1,101,1,-0.7
CC(C)(C)C(=O)N(CCN(C(=O)C(C)(C)C)c1ccccc1)c1ccccc1,-71,250,i,0.76,109,-8,-1.1

# Three compounds already listed, arranged by molar mass, lowest first:
SMILES,Insulin prom inh,Insulin prom inh cell count,HSV replic up,HSV replic up primary fold,RGS16-Gao,PKD1 inh,GALR2 agonist
FC(F)(F)c1cnc(Oc2cccc3ccccc23)c(Cl)c1,41,92,i,1,101,-5,-1.0
CSc1nsc(SC)c1NC(=O)OCc1ccccc1,31,155,i,0.99,96,-7,-4.2
CC(C)(C)C(=O)N(CCN(C(=O)C(C)(C)C)c1ccccc1)c1ccccc1,-71,250,i,0.76,109,-8,-1.1

# The list continues.
SMILES,Insulin prom inh,Insulin prom inh cell count,HSV replic up,HSV replic up primary fold,RGS16-Gao,PKD1 inh,GALR2 agonist
Cc1ccc2nc(-c3ccccn3)c(Nc3ccccc3C)n2c1,nt,nt,i,0.7,99,-3,nt
COc1ccc(C2C(C(=O)c3cccs3)=C(O)C(=O)N2c2nncs2)cc1 (centres undefined),nt,nt,i,0.75,101,67*,-2.4
CC1(C)C(c2cccs2)=[N+]([O-])C2(CCCCC/C2=N\NC(N)=S)N1O (centres undefined),39,105,i,0.83,100,-5,0.0
Nc1nnc(-c2cc3ccccc3oc2=O)s1,74,108,i,0.91,102,-2,-3.2
O=C(c1ccc(Cl)c([N+](=O)[O-])c1)N(Cc1ccc(F)cc1)C1CCS(=O)(=O)C1 (centres undefined),nt,nt,i,1.1,96,nt,nt
CN(c1ccccc1)S(=O)(=O)c1ccc(C(=O)Nc2nnc(-c3ccco3)o2)cc1,-145,141,i,0.92,105,-6,nt
COc1ccc(C(CNC(=O)COc2ccc(Br)cc2F)N2CCCC2)cc1 (centres undefined),nt,nt,i,0.76,105,5,nt
C#CCOCCOCCOCCNc1nc(N2CCN(C(=O)[C@H]([C@@H](C)CC)n3cc(CCCN=C(N)N)nn3)CC2)nc(N2CCN(C(=O)[C@H](CCCCN)n3cc(CCCC)nn3)CC2)n1,5,108,i,0.76,95,14,-0.5
Cc1cccc(Cc2nnc(NC(=O)c3cccc(S(=O)(=O)N4CCOCC4)c3)s2)c1,nt,nt,i,0.91,102,-9,-0.5
Cn1ccc(C(=O)NC(=S)N2CCSCC2)n1,nt,nt,i,0.91,100,nt,nt
COCC1CCN(Cc2nc(-c3ccc4c(c3)OCO4)no2)C1 (centres undefined),nt,nt,i,1,108,2,nt
O=C(NCCc1cn2ccccc2n1)c1cc(COc2ccc3ncccc3c2)on1,nt,nt,i,1,125,-6,nt
c1ccc(CSc2nnc(-c3ccncc3)o2)cc1,53,45,i,0.86,101,4,1.1
CSC1=C(C#N)C(c2cccc(Br)c2)CC(=O)N1 (centres undefined),2,71,i,0.93,102,2,-0.7
C/C(O)=c1/ccc2cccc3nc(C)nc1c23,nt,nt,i,1.2,99,-7,1.1
O=C(COc1ccc(Cl)cc1)N1CCN(c2ccc([N+](=O)[O-])c(N3CCOCC3)c2)CC1,7,68,i,1.1,87,-11,-0.4
COc1ccc(CCN2C(=O)C3C4C=CC(C3C2=O)C2C(=O)N(CCc3ccc(OC)c(OC)c3)C(=O)C42)cc1OC (centres undefined),-47,41,i,0.98,106,-7,0.1
Cc1cc(C)c(OCCCCCNCCO)c(C)c1,-32,113,nt,nt,104,0,-1.9
CCOC(=O)C1=C(c2ccccc2)OC(N)=C(C#N)C1C(C)C (centres undefined),nt,nt,i,0.94,105,0,-1.0
O=C(Nc1nncs1)c1ccc(N2C(=O)C3C4C=CC(C4)C3C2=O)cc1 (centres undefined),-108,81,i,0.84,100,4,-0.6
CCCS(=O)(=O)c1c(S(=O)(=O)CCC)c2c3ccccc3ccn2c1C(N)=O,-22,93,i,1,102,2,-0.3
COCCCNC(=O)c1ccc(Cn2c(=O)c3ccccc3n(Cc3ccc(C)cc3)c2=O)cc1,0,115,i,0.8,98,0,-1.3
COc1cccc(-n2c(=O)c3cc(OC)c(OC)cc3n(CC(=O)Nc3cc(C)[nH]n3)c2=O)c1,-11,105,i,1,178,-16,-0.1
Cc1ccc2cccc(OCC(=O)Nc3ccc(N4CCOCC4)cc3)c2n1,nt,nt,i,0.97,89,-4,nt
Fc1ccc(C[n+]2csc3ccccc32)cc1,-4,114,i,0.95,54,6,-1.6
N#C/C(=C(/O)CN1CCOCC1)c1nc2ccccc2s1,45,148,i,0.86,30,-9,0.1
COc1ccc(NC(=O)C2CCCN2c2ccc(OC)c(OC)c2)cc1OC (centres undefined),-67,111,nt,nt,101,-10,-0.8
CCOc1cc(N2CCOCC2)c(OCC)cc1NC(=O)c1c(-c2ccccc2Cl)noc1C,-36,87,i,0.97,111,-2,nt
Cc1c(C(=O)CN2CCOCC2)[nH]c2ccccc12,nt,nt,i,1.1,199,5,-0.5
COc1ccccc1NC(=O)c1ccc(CN(c2cc(Cl)ccc2C)S(=O)(=O)c2ccccc2)cc1,36,114,i,0.78,98,-1,-2.4
CN(C)S(=O)(=O)c1ccc(C(=O)N2CCOCC2)cc1,20,76,i,0.88,98,-2,0.0
O=C(CSc1nc(N2CCCCC2)nc(N2CCCCC2)n1)c1ccccc1,9,102,i,1,99,-7,1.9
Cc1ccc(C(=O)N2NC(c3ccc(F)cc3)C3C(=O)N(c4ccc(C)cc4)C(=O)C32)cc1 (centres undefined),14,116,nt,nt,nt,-7,-2.1
COC(=O)Cc1ccc(NC(=O)C(c2ccccc2)c2ccccc2)cc1,57,76,i,0.92,117,-4,-0.7
O=C1c2ccc3c4c(ccc(c24)C(=O)N1c1cccc(O)c1)CC3,-44,174,i,0.98,96,-4,nt
Cc1ccc(NC(=O)c2cc(S(=O)(=O)N3CCCCC3)cs2)cc1,-4,93,i,0.98,98,-9,-1.0
O=C(COC(=O)c1cnccn1)c1ccc(Cl)cc1,36,56,i,0.99,116,2,nt
CC(C)OC(=O)CN1C(=O)C(C)(C)Oc2ccc(C(=O)NC3CC3)cc21,-31,127,i,0.93,102,-1,-0.7
CCCN1CNC(=S)N(CCc2ccccc2)C1,nt,nt,i,0.98,86,1,-0.9
O=C(CSc1nc(O)c(Cc2ccccc2F)c(=O)[nH]1)N1CCCCCC1,nt,nt,i,0.91,97,2,-3.2
COCC(=O)N(Cc1ccc(OC)cc1)Cc1nc2ccccc2c(=O)[nH]1,-27,42,i,0.98,111,-3,-1.1
COc1ccc(NC(=O)N(Cc2ccc(C)cc2)Cc2ccccn2)c(OC)c1,nt,nt,i,0.84,nt,-8,-0.4

# Screening data from PubChem.
